High-throughput results: PubChem BioAssay, National Center for Advancing Translational Sciences (NCATS)
VDR inhibitor = vitamin D3 receptor (human) inhibition. P11473. VDR-SRC2-3 peptide fluorescence polarization, 2 h. Potency, µM, for inactives: max response, negative = inhibition, most hits filed as inhibitors. 400,000 compounds, 0.93% hits. AID 504847; active = well fitted inhibition curve with a large enough effect; inconclusive = small, poorly fitted or top-dose-only effect, or another doubt; inactive = no such curve, though single readings can be large or run the other way; also: series mostly up to about 120 µM
Target sequence (P11473 whole entry, looked up): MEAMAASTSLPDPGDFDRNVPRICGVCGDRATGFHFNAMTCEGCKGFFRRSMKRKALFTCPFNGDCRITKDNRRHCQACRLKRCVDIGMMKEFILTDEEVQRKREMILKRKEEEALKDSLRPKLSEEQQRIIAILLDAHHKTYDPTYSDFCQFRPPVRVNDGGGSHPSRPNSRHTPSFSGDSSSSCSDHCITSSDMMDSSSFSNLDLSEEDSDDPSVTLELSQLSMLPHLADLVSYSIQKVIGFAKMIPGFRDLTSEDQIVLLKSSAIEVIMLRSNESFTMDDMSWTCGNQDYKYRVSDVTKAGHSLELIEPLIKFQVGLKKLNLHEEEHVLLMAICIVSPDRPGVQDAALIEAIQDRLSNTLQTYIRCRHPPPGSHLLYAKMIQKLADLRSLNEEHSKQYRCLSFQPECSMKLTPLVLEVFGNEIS
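FP read-out; VDR + SRC2-3 coactivator peptide; 23 nl compound by pintool; 2 h RT incubation; reagents held at 4 deg C, protected from light.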
* = called active by the depositor; ? = inconclusive; [ ] = remark or other dose. % is scaled to controls: 0 for no effect and ±100 for the full control effect; potency is read from the fitted curve at half-maximal effect.

SMILES	VDR inhibitor
COc1ccc(CCNC(=O)Cn2cc(S(=O)(=O)Cc3cccc(Cl)c3)c3ccccc32)cc1OC	-1%
COc1cc(/C=N\n2cnnc2)ccc1OCC(=O)Nc1ccc(C)cc1	-15%
Cc1nnc(NC(=O)CCC(=O)N2CCN(S(=O)(=O)c3cc([N+](=O)[O-])ccc3C)CC2)s1	-6%
O=C(Nc1ccc(OC(F)(F)F)cc1)C1CCN(S(=O)(=O)c2cccs2)CC1	-9%
CC(C)(C)c1ccc(/C=C2\SC(=O)N(CCNC(=O)c3cccc(S(=O)(=O)N4CCOCC4)c3)C2=O)cc1	-10%
CCCCCCCCn1c2c(c(=N)c3ccccc31)CCC2	-14%
Cc1cc(C)cc(OCC(=O)Nc2ccc(S(=O)(=O)Nc3onc(C)c3C)cc2)c1	-17%
C#CCOc1c(Br)cc(/C=C2/C(=O)ON=C2C)cc1OCC	?
C/C(=N\NC(=O)c1nc2ccccn2c1C)c1ccco1	-18%
CCCCCCOc1ccc(N2C(=O)CC(N3CCN(C(=O)c4ccco4)CC3)C2=O)cc1 (centres undefined)	-6%
COC(=O)N/N=C(\C)c1ccc(C)c([N+](=O)[O-])c1	-12%
COc1ccccc1NC(=O)CN(Cc1ccco1)C(=O)c1cncc(Br)c1	-7%
COc1ccc(S(=O)(=O)N2CCCCC2)cc1N(C)S(=O)(=O)c1ccccc1	9%
Cc1nn(C(=O)CCC(=O)NCc2ccccc2Cl)c2ccccc12	-3%
CCOCCCNC(=O)c1oc2ccc(S(=O)(=O)N3CCOCC3)cc2c1C	-8%

The final 3 entries of the part above come first, to join the parts.
SMILES	VDR inhibitor
COc1ccc(S(=O)(=O)N2CCCCC2)cc1N(C)S(=O)(=O)c1ccccc1	9%
Cc1nn(C(=O)CCC(=O)NCc2ccccc2Cl)c2ccccc12	-3%
CCOCCCNC(=O)c1oc2ccc(S(=O)(=O)N3CCOCC3)cc2c1C	-8%
CC(Oc1ccccc1Cl)c1nnc(N)s1 (centres undefined)	-2%
C=CCN1C(=O)c2ccccc2NC1c1ccc(Br)s1 (centres undefined)	-4%
CCOc1ccccc1CNC(=O)c1ccc(-c2nc(CSc3ccc(C)cc3)c(C)o2)cc1	0%
CCN(CC(=O)Nc1ccc(NC(C)=O)cc1)S(=O)(=O)/C=C/c1ccccc1	-25%
COc1cc(C2NC(=S)NC(c3ccccc3)=C2C(C)=O)cc(Cl)c1OCC(=O)O (centres undefined)	0%
CC(OC(=O)CNC(=O)C12CC3CC(CC(C3)C1)C2)C(=O)Nc1ccc(S(N)(=O)=O)cc1 (centres undefined)	15%
Cc1ccc(C(=O)NNC(=O)c2cccc(S(=O)(=O)N3CCN(c4ccccc4)CC3)c2)cc1	-16%
Cc1cccc(C(=O)N2CCC(Cc3ccccc3)CC2)c1[N+](=O)[O-]	-12%
S=C(Nc1cccc(Cl)c1Cl)N1CCCC1	-2%
COc1ccc2cc(-c3nc(Cl)c4c5c(sc4n3)CCCC5)c(=O)oc2c1	-8%
N#Cc1cnn(-c2ncnc3sc4c(c23)CCCC4)c1N	1%
O=C(C[n+]1cccc(CNC(=O)c2ccc(OC(F)F)cc2)c1)Nc1cccc(C(F)(F)F)c1	6%
CC(=O)c1ccc(N2C(=O)CC(N3CCN(S(=O)(=O)c4ccc(C)c(C)c4)CC3)C2=O)cc1 (centres undefined)	1%
COc1ccc(S(=O)(=O)N(C)C)cc1NS(=O)(=O)c1ccc(F)c(F)c1F	8%
Cc1nc(N)nc(Cl)c1CCC1OCCO1	26%
CC(C)(C)N(NC(=O)Nc1ccc(Cl)c(Cl)c1)C(=O)c1ccccc1	-6%
COC(=O)c1ccc(/C=C(/NC(=O)c2ccccc2)C(=O)N2CCOCC2)cc1	-2%
Cc1cccc2sc(NC(=O)C3CCN(C(=O)c4ccco4)CC3)nc12	9%
O=C(COC(=O)Cc1ccc(Cl)cc1Cl)Nc1ccccc1OC(F)F	-17%
COc1ccc(C(=O)n2cnc3ccccc32)cc1	-28%
Fc1ccc(-c2ccnc3nc(-n4cccc4)nn23)cc1	11%
CCN(CC)S(=O)(=O)c1cc(NC(=O)Cn2ncc(Cl)c(Cl)c2=O)ccc1C	0%
CCC1(C)CC(CCN(Cc2ccco2)C(C)=O)(c2ccccc2)CCO1 (centres undefined)	0%
c1ccc2c(c1)NC1(CCCCC1)n1c-2nc2ccccc21	30%[activator]
Cc1ccc(CN2CC(C(=O)NCCC3=CCCCC3)CC2=O)cc1 (centres undefined)	-8%
Cc1ccc(Nc2nc(=O)[nH]nc2C)cc1	8%
CCN(CC)S(=O)(=O)c1ccc(N2C(=O)Nc3ccccc3N2O)cc1	-18%
CCCOc1ccc(N/C=C/C(=O)C(C)(C)C)cc1	1%
CCOC(=O)C(C(=O)Nc1cccc(C)c1)C1CCCCC1 (centres undefined)	0%
COc1ccccc1NC(=O)C1=C(C)NC(SCC(=O)c2ccccc2)=C(C#N)C1c1ccco1 (centres undefined)	-7%
CCN(C(=O)c1cc2c(s1)-c1ccccc1OC2)c1cccc(C(F)(F)F)c1	-11%
CCOc1ccc(N2C(=O)CC(NC3CCN(C(=O)c4cccs4)CC3)C2=O)cc1 (centres undefined)	11%
COC1=C(Nc2ccc(C)cc2)C(=O)c2ccccc2C1=O	?
COc1ccc(S(=O)(=O)c2c(Nc3c(C)cccc3C)sc(C(=O)c3ccc(F)cc3)c2N)cc1	4%
CCCCCC/C=C\CCCCCCCc1cccc(O)c1C(=O)O	?
O=C(Cn1nc(Cc2cccnc2)c2ccccc2c1=O)Nc1cc(F)ccc1F	8%
Nc1nnc(Cc2ccccc2)s1	4%
CCCCNc1c(N2CCN(C(=O)OCC)CC2)c(=O)c1=O	-1%
O=C(CCCOc1ccc(Br)cc1)NNC(=O)c1ccncc1	-3%
Cc1ccc(S(=O)(=O)N2[C@@H](c3ccc(C(C)(C)C)cc3)C(C(=O)O)=CC[C@H]2c2ccc(Cl)c(Cl)c2)cc1	2%
COCCCNC(=O)c1ccc(Cn2c(=O)c3ccccc3n(CC(N)=O)c2=O)cc1	-7%
Cc1nn(CC(=O)N2N=C(C(F)F)CC2(O)C(F)F)c(C)c1[N+](=O)[O-] (centres undefined)	-11%
NC(=O)c1cnn2c(-c3cccc(C(F)(F)F)c3)ccnc12	6%
COc1ccc(S(=O)(=O)n2nc(C)c(S(=O)(=O)N3CCCCCC3)c2C)cc1OC	11%
CC(CC(=O)NCc1ccc(F)cc1)c1ccccc1 (centres undefined)	1%
Cc1cc(C(=O)COc2ccccc2[N+](=O)[O-])c(C)n1-c1cccc(S(=O)(=O)N2CCOCC2)c1	-7%
Cc1ccc(NC(=O)CN2C(=O)N/C(=C/c3ccc4c(c3)OCCO4)C2=O)cc1	-17%
O=C1CN(C(=S)Nc2ccc(OC(F)F)cc2)CCN1	-10%
CCOC(=O)C1=C(C)C(c2ccccc2OC)NC(=S)N1 (centres undefined)	-5%
CC(=O)N[C@@H](Cc1c[nH]c2ccccc12)C(=O)NCCc1ccc(S(N)(=O)=O)cc1	-14%
COc1cccc(NC(=O)CN(C)C(=O)c2cc(-c3ccco3)nc3ccccc23)c1	-13%
CCOc1cc(/C=C(/C#N)C(=O)Nc2ccc(O)cc2)cc(Br)c1O	-17%
COc1ccc(C(=O)N[C@H](C(=O)NCc2ccc(C)cc2)C(C)C)cc1	7%
NC(=O)CN1CCN(S(=O)(=O)c2ccc(Cl)cc2)CC1	12%
CCN1C(=O)/C(=C2\SC(=S)N(NC(=O)c3cccnc3)C2=O)c2ccccc21	6%
COc1ccc(NC(=O)Cn2c(=O)n(Cc3ccccc3)c(=O)c3sc4ccccc4c32)cc1	15%
C(=N\Nc1nc2ccccc2[nH]1)/c1ccncc1	8%
Cc1ccccc1NCC(=O)N/N=C/c1c[nH]c2ccccc12	-2%
CCOC(=O)c1c(C)n(C)c2cc(Br)c(OC)cc12	-16%
O=C(Nc1ccccc1)c1ccc(S(=O)(=O)N(CCO)CCO)cc1	-12%

Further records:
SMILES	VDR inhibitor
O=c1c2c([N+](=O)[O-])cc([N+](=O)[O-])cc2sn1Cc1ccccc1	22µM*
NS(=O)(=O)c1ccc(CNC(=O)c2ccc(Cl)c(S(=O)(=O)NCc3ccccc3)c2)cc1	-20%
CC(=O)Nc1ccc(S(=O)(=O)Nc2cc(C)c(-n3nc4ccccc4n3)cc2O)cc1	9%
COc1ccccc1NC(=O)C(CC(C)C)NC(=O)C1CCCCC1 (centres undefined)	35%[activator]
Cc1nnc(SCC(=O)Nc2sccc2C(N)=O)n1Cc1ccccc1	0%
CCNC(=S)Nc1scc(-c2ccccc2)c1C(=O)OCC	-11%
Cc1ccc(NC(=O)CC(=O)Nc2ccc(C)cc2C)c(C)c1	2%
COc1ccc(C2(C)NC(=O)N(CC(=O)c3ccc4c(c3)OCO4)C2=O)cc1 (centres undefined)	-12%
Cc1cc(C(=O)COC(=O)c2ccc(O)cc2)c(C)n1CC(F)(F)F	4%
COCCn1c(Sc2nc(C)cs2)nc2c1c(=O)[nH]c(=O)n2C	-5%
O=Cc1cn(CC(O)Cn2cc(C=O)c3ccccc32)c2ccccc12	3%
Cc1cccc(C)c1NC(=O)CCCSc1nnnn1C	-3%
Cc1cc(C)n2c(SCC(=O)NC3CCCCC3C)nnc2n1 (centres undefined)	4%
CC(C)CCNC(=O)C1CCC(=O)N1C(C)C (centres undefined)	-12%
COc1ccc(CC(=O)Nc2ccc(S(=O)(=O)N3CCC(C)CC3)cc2)c(OC)c1	-2%

Some values from the list:
VDR inhibitor result of COc1ccc(S(=O)(=O)N2CCCCC2)cc1N(C)S(=O)(=O)c1ccccc1 = 9%
VDR inhibitor result of CCOc1cc(/C=C(/C#N)C(=O)Nc2ccc(O)cc2)cc(Br)c1O = -17%
VDR inhibitor result of CCN(CC(=O)Nc1ccc(NC(C)=O)cc1)S(=O)(=O)/C=C/c1ccccc1 = -25%
VDR inhibitor result of CCN(CC)S(=O)(=O)c1ccc(N2C(=O)Nc3ccccc3N2O)cc1 = -18%
VDR inhibitor result of CC(C)CCNC(=O)C1CCC(=O)N1C(C)C (centres undefined) = -12%
VDR inhibitor result of N#Cc1cnn(-c2ncnc3sc4c(c23)CCCC4)c1N = 1%

Five entries drawn at random from those above, as already listed:
SMILES	VDR inhibitor
NS(=O)(=O)c1ccc(CNC(=O)c2ccc(Cl)c(S(=O)(=O)NCc3ccccc3)c2)cc1	-20%
Cc1ccc(NC(=O)CC(=O)Nc2ccc(C)cc2C)c(C)c1	2%
COc1ccc(C2(C)NC(=O)N(CC(=O)c3ccc4c(c3)OCO4)C2=O)cc1 (centres undefined)	-12%
COc1ccc(CC(=O)Nc2ccc(S(=O)(=O)N3CCC(C)CC3)cc2)c(OC)c1	-2%
O=c1c2c([N+](=O)[O-])cc([N+](=O)[O-])cc2sn1Cc1ccccc1	22µM*

Additional results follow:
SMILES	VDR inhibitor
CCCCCN1CSC(=S)N(Cc2ccccc2)C1	-25%
O=C(CSc1nnnn1C1CCCC1)Nc1cccc(NC(=O)c2ccco2)c1	-4%
CCC(=NCc1ccco1)c1c(C(F)(F)F)[nH]n(-c2nc3ccccc3s2)c1=O	-9%
Cc1[nH]c2ccccc2c1Cc1n[nH]c(=S)n1C	6%
CCOc1ccc(N(CC(=O)Nc2ccc(C)c(C)c2)S(=O)(=O)c2c(C)noc2C)cc1	1%
CCCCCc1nnc(NC(=O)OCCC)s1	9%
O=C(NCc1ccccc1Cl)c1ccc(-c2ccccc2)cc1	18%
COc1cc(OC)cc(C(=O)N2CCC(n3c(C)nc4cc(F)ccc43)CC2)c1	-13%
O=C(NCc1cccs1)c1ccc(Cl)s1	-8%
CCOC(=O)C1(Cc2cccc(Cl)c2)CCCN(C(=O)c2ccoc2C)C1 (centres undefined)	-11%
CC1=C(C(=O)NCCN2CCN(C)CC2)C2(CCC(C)CC2)OC1=O (centres undefined)	-24%
O=C(CN1C(=O)CC(c2ccco2)Sc2ccccc21)Nc1ccc2c(c1)OCCO2 (centres undefined)	4%
CCOCCCNC(=O)c1ccc(N2CC3CC(C2)c2cccc(=O)n2C3)c(NC(=O)Nc2cccc(OC)c2)c1 (centres undefined)	-2%
COc1cccc(C(=O)Nc2cc(-c3cn4cccnc4n3)ccc2C)c1OC	-4%
Cc1ccc(S(=O)(=O)Cc2ccc(C(=O)N3CCCCCC3)o2)cc1	-28%
CCOc1ccc(N2C(=O)c3ccccc3C2O)cc1 (centres undefined)	5%
CCCn1nnc(NC(=O)c2cc3ccccc3o2)n1	1%
CC(C)(C)Nc1nc(-c2ccccn2)nc2ccccc12	?
COc1cc(C(=O)Nc2cc(S(=O)(=O)N3CCOCC3)ccc2N2CCOCC2)ccc1OC(F)F	10%
O=C(N/N=C/c1sc(N2CCOCC2)nc1-c1ccccc1)c1ccccc1F	20%
CN1C(=O)C(Cl)(Cl)C(=O)c2ccccc21	4µM*
Oc1ccc2ccccc2c1Br	-17%
CC(C)C1=C2OC(N)=C(C#N)C(C#N)=C2C(C)CC1 (centres undefined)	11%
CCOC(=O)c1[nH]c2ccc(F)cc2c1NC(=O)C(C)N1CCc2cc(OC)c(OC)cc2C1 (centres undefined)	-13%
CCCCc1nc(N2CCOCC2)c(C#N)c2c1CCCC2	-9%
N#Cc1c(-c2ccccc2)nc2n(c1=O)CCS2	-1%
COc1cccc(NC(=O)COC(=O)CCCc2c[nH]c3ccccc23)c1	6%
CC(C)c1ccc(CN2CCC(C(=O)NCc3cccnc3)CC2)cc1	51%[activator]
CCOC(=O)c1sc(=S)n(CC)c1NC(=O)c1ccccc1	0%
O=C(CCc1ccc(S(=O)(=O)NCc2ccccc2)cc1)NCc1ccc2c(c1)OCO2	-7%
O=C(O)C1CCN(S(=O)(=O)c2ccc(N3CCC(O)CC3)c([N+](=O)[O-])c2)CC1	8%
N#C/C(C(=O)Nc1ccc(Cl)cc1)=C(/S)Nc1ccccc1	?
CCC1S/C(=C(\C#N)C(=O)NCc2ccco2)N(c2ccc(Br)cc2)C1=O (centres undefined)	-4%

An excerpt; rates above refer to the full screens.
